GIRK2 act: GIRK2 channel activation; HEK293-GIRK2 thallium flux, Thallos fluorescence; P48051; AID 1259325; calls only for hits at 25 µM; 63,000 tested, 0.05% active;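 active means among the strongest 0.2% of first-round signals and kept after retests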;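 further: first round at about 10 µM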
Target sequence (P48051 whole entry, looked up): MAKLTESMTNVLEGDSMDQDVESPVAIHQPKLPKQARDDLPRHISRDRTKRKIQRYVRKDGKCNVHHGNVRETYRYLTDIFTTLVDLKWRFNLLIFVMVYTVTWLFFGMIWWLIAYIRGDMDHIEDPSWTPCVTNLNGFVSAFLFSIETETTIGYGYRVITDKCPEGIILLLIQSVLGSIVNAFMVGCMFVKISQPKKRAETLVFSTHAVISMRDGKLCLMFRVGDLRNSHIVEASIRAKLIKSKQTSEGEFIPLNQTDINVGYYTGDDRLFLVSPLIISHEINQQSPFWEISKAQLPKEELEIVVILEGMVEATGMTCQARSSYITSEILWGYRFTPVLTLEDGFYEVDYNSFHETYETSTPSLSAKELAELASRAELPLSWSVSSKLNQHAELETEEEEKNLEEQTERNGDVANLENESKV
Calls only; i = inactive. Only part of the results is shown; rates above refer to the full screens.

entry	GIRK2 act	SMILES
1	i	COc1ccc(-c2nc(-c3nnn(-c4ccc(F)cc4)c3C)no2)cc1OC
2	i	Cc1ccnc(Nc2cc(N3CCN(S(=O)(=O)N(C)C)CC3)nc(C)n2)c1
3	i	Cc1ccccc1N1CCN(S(=O)(=O)N(C)C)CC1
4	i	O=C1OC2CC1N(C(=O)c1ccccc1Br)C2 (centres undefined)
5	i	O=C(Cc1csc(Nc2ncccn2)n1)NC1CC1
6	i	COC(=O)C1=C(CS(=O)(=O)c2ccc(OC)cc2)NC(=O)NC1c1ccccc1 (centres undefined)
7	i	O=c1[nH]c2nc(NCc3cc(F)cc(F)c3)ncc2c(=O)n1Cc1ccccc1
8	i	Cc1nnc(SCC(=O)N(C(C)C)C(C)C)c2c1cnn2-c1ccc(F)cc1
9	i	CCOC(=O)CCC(=O)N1CCCC(c2nnc(-c3ccc(OC)cc3)s2)C1 (centres undefined)
10	i	COc1ccc(C(C)=O)cc1NC(=O)C1=Cc2cc(Cl)ccc2OC=C1
11	i	COc1ccccc1Oc1ccc(S(=O)(=O)NCc2ccccn2)cc1
12	i	CCc1ccccc1-n1c(-c2ccccc2)cn2c3c(=O)n(CCOC)c(=O)n(C)c3nc12
13	i	COc1ccc(-c2cn[nH]c2-c2ccc(OCCN3CC(C)OC(C)C3)cc2O)cc1OC (centres undefined)
14	i	COc1cc2nc3sc(NCC4CCCO4)nn3c(=O)c2cc1OC (centres undefined)
15	i	Cc1ccccc1Cn1c(=O)c2c(nc3n(CCCN4CCOCC4)c(C)c(C)n23)n(C)c1=O
16	i	O=C(Nc1ccccc1-c1nc2ccccc2[nH]c1=O)c1cc([N+](=O)[O-])ccc1Cl
17	i	Cc1c(C(=O)N2CCN(c3ccccc3F)CC2)oc2c1C(=O)CCC2
18	i	Cc1ccccc1NC(=O)Cn1c(=O)c(N2CCCCC2)nc2ccccc21
19	i	COC(=O)c1c(NCc2ccc(F)cc2F)c2cc(Cl)ccc2[nH]c1=O
20	i	CCOc1ccc(NC(=O)Nc2cnc(Oc3ccccc3)nc2)cc1

5 structures out of the list, sorted by formula weight, descending:
entry	GIRK2 act	SMILES
2	i	Cc1ccnc(Nc2cc(N3CCN(S(=O)(=O)N(C)C)CC3)nc(C)n2)c1
14	i	COc1cc2nc3sc(NCC4CCCO4)nn3c(=O)c2cc1OC (centres undefined)
17	i	Cc1c(C(=O)N2CCN(c3ccccc3F)CC2)oc2c1C(=O)CCC2
3	i	Cc1ccccc1N1CCN(S(=O)(=O)N(C)C)CC1
5	i	O=C(Cc1csc(Nc2ncccn2)n1)NC1CC1

Going on with the list.
entry	GIRK2 act	SMILES
21	i	CCOc1cc(S(=O)(=O)NCCN2CCOCC2)ccc1F
22	i	O=C(NCCC(O)c1cccc2ccccc12)Nc1cccc(Cl)c1 (centres undefined)
23	i	Cc1cccc(-c2noc(CN3C(=O)COc4ccccc43)n2)c1
24	i	Cc1ccc(NS(=O)(=O)c2ccc3[nH]c(=O)cc(C)c3c2)cc1C
25	i	COc1ccccc1N1CCN(c2nnc(SCc3ccccc3F)s2)CC1
26	i	COc1ccc(CNC(=O)CSc2cc(-n3nc(C)cc3C)ncn2)cc1
27	i	O=C(NC1CCCCCC1)c1ccc(Oc2nccnc2N2CCCCC2)cc1
28	i	O=C(NCc1ccco1)C1CCCN(Cc2nc(-c3cccs3)no2)C1 (centres undefined)
29	i	O=c1cc(CN2CCCCC2)c2cc3c(cc2o1)OCO3
30	i	O=S(=O)(Nc1cnc(N2CCOCC2)nc1)c1cccc(F)c1
31	i	CS(=O)(=O)N1CCN(S(=O)(=O)C2CC2)CC1
32	i	CSc1cccc(C(=O)N2CCC(Oc3nc4c(C)cccc4s3)CC2)c1
33	i	Cc1c(C)n2c3c(=O)n(C)c(=O)n(C)c3nc2n1Cc1c(Cl)cccc1Cl
34	i	COc1cc(OC)c(NC(=O)CSc2cc(-c3ccccn3)nc(C)n2)cc1Cl
35	i	O=C(NCc1ccc(C(=O)c2cccs2)s1)Nc1ccccc1F
36	i	O=C(COc1ccc(Cl)cc1Cl)N1CCC2(CC1)OCCS2
37	i	COc1cccc(CNC(=O)CC2CCCCN2S(=O)(=O)c2ccc(F)cc2)c1 (centres undefined)
38	i	COc1ccc(C)cc1NC(=O)CSc1nc2c(-c3ccccc3)c[nH]c2c(=O)n1C1CC1
39	i	Cc1ccccc1CNC(=O)c1cnn(-c2ccc(-c3nc(C(C)C)no3)cn2)c1C
40	i	COC(=O)c1ccc2c(=O)n(-c3cccc(Cl)c3)c(N3CCSC3)nc2c1
41	i	COc1ccc(NC(=O)c2ccc(C(C)(C)C)cc2)cc1N1CCCC1=O
42	i	CS(=O)(=O)c1ccc2nc(N3CCN(C(=O)CCc4ccccc4)CC3)sc2c1
43	i	CN(CC(=O)NCc1ccc(Cl)cc1)c1nc2c(F)cccc2s1
44	i	CCOC(=O)N1CCN(Cc2cc(=O)oc3ccc(C)cc23)CC1
45	i	C=CCn1c(=O)c2c(nc3n2C(C)C(C)=NN3CC(=O)OC)n(C)c1=O (centres undefined)
46	i	Cn1c(=O)[nH]c(=O)c2[nH]c(N(Cc3ccccc3)Cc3ccccc3)nc21
47	i	COCCNC(=O)c1coc(NC(=O)c2cnccn2)n1
48	i	Cc1ccc2c(Nc3ccc(OC(F)(F)F)cc3)c(C(=O)N3CCCC3)cnc2n1
49	i	Cn1c(=O)[nH]c(=O)c2c1nc(N1CCN(Cc3ccccc3)CC1)n2CCCOc1ccccc1
50	i	COc1ccc(-c2noc(C3CCN(S(=O)(=O)c4ccc(C)cc4)CC3)n2)cc1OC
51	i	Cc1cc(C)cc(-n2nnc3c(=O)n(CC(=O)N4CCc5ccccc54)cnc32)c1
52	i	CC1=C(C(N)=O)C(c2cccc(F)c2)n2ncnc2N1 (centres undefined)
53	i	COC(=O)COc1ccc2c(c1)O/C(=C\C1=Cc3ccccc3OC1)C2=O
54	i	CSc1ncccc1C(=O)Nc1ccc2c(c1)N(S(=O)(=O)c1ccc(F)cc1)CCC2
55	i	Cc1ccc(Cl)cc1-n1c(C)cn2c3c(=O)n(CC(N)=O)c(=O)n(C)c3nc12
56	i	O=C(Nc1nccs1)c1ccc(-n2nncc2-c2ccccc2)cc1
57	i	Cc1ccc(S(=O)(=O)c2c(C)nn(-c3ccccc3)c2OC(=O)C23CC4CC(CC(C4)C2)C3)cc1
58	i	CCOc1ccccc1NC(=O)Cn1nc2c(Oc3ccccc3)nccn2c1=O
59	i	O=C1NC(O)=NC1(c1ccccc1)c1ccccc1
60	i	O=C(c1ccc2ccccc2n1)N1CCN(CC(O)C2CC2)CC1 (centres undefined)
61	i	COc1ccc(-c2cnc(N)nc2-c2ccc(OCc3ccccc3)cc2O)cc1
62	i	Cc1ccc(Cn2c(Sc3c([N+](=O)[O-])ncn3C)nc3c2c(=O)n(C)c(=O)n3C)cc1
63	i	CC(C)CNc1oc(-c2ccc(S(=O)(=O)N(C)C)cc2)nc1C#N
64	i	O=C(Cc1ccccc1)N1CCC(c2nnc(-c3ccoc3)o2)CC1
65	i	COCCNc1oc(-c2ccccc2)nc1S(=O)(=O)c1ccc(Cl)cc1
66	i	O=c1c2nc(N3CCCC3)sc2c(-c2ccccc2)nn1Cc1cccc(F)c1
67	i	CC1CCN(C(=O)CCc2nnc3n(Cc4ccc(Cl)cc4)c(=O)c4ccccc4n23)CC1
68	i	COCCN1CCC(NC(=O)CCc2ccccc2)CC1
69	i	CCOc1ccc(-n2nnc(C(=O)N3CCOCC3)c2COC)cc1
70	i	COc1ccccc1C1(CNS(=O)(=O)c2ccc(Cl)s2)CCOCC1
71	i	CCN(CC)C(=O)CSc1nnc2n(CCC(=O)NC3CCCCC3)c(=O)c3ccccc3n12
72	i	COc1ccc(NC(=O)c2cc(-c3ccc(F)cc3)c[nH]2)cc1Cl
73	i	O=C(NCc1ccc2c(c1)OCO2)c1nn(-c2ccccc2)c2ccccc2c1=O
74	i	O=C(NCC1(O)CCOc2ccccc21)C(=O)NC1CC1 (centres undefined)
75	i	COc1ccc(CNC(=O)Cn2nc3c(c2NC(=O)Cc2cccs2)CSC3)cc1
76	i	Cc1noc(CNC(=O)C2CCN(C(=O)c3cc(C)on3)CC2)n1
77	i	O=C(Nc1nnc(-c2cccs2)o1)c1cc(Cl)ccc1Cl
78	i	COc1ccc(NC(=O)Cn2nc3c(Oc4ccc(C)cc4)nccn3c2=O)c(OC)c1
79	i	CC(C)CCn1c(SCC(=O)Nc2ncn[nH]2)nc2cc3c(cc2c1=O)OCO3
80	i	Nc1nc(Cl)nc2c1ncn2[C@@H]1O[C@H](CO)[C@@H](O)[C@H]1O

Remaining list, next part
entry	GIRK2 act	SMILES
81	i	Cc1cc(F)ccc1S(=O)(=O)N1CCCOC1CNC(=O)C(=O)NCCCN1CCOCC1 (centres undefined)
82	i	O=C(Nc1cccc(C(F)(F)F)c1)c1cc(-c2ccccc2)nc2ccccc12
83	i	CN(CC(=O)Nc1ccc(C(F)(F)F)cc1)c1nc2ccccc2s1
84	i	CCC(=O)NCCN1CCN(C(=O)OC(C)(C)C)CC1
85	i	Fc1ccc([C@@H]2CCNC[C@H]2COc2ccc3c(c2)OCO3)cc1
86	i	Nc1ccc2c(c1)CCCN2C(=O)c1cccs1
87	i	CCCCCCCCCCCCCCCCOC[C@H](COP(=O)(O)OCC[N+](C)(C)C)OC(=O)CCCCCCCC(=O)[O-]
88	i	COc1ccc(SCC2CCN(C(=O)c3ccc(Cl)s3)CC2)cc1
89	i	CCOc1ccc2ccccc2c1C(=O)N1CC(c2nc(-c3ncccn3)no2)C1
90	i	Cc1noc(CNC(=O)C2CCN(C(=O)/C=C/c3ccco3)CC2)n1
91	i	N#Cc1ccc(C(=O)NC2CCN(C(=O)c3cn[nH]c3-c3ccc(F)cc3)CC2)cc1
92	i	CC(=O)Oc1ccc2c(c1)O/C(=C\C1=Cc3ccccc3OC1C)C2=O (centres undefined)
93	i	Cc1ccc2c(c1)N(C(=O)Cn1cc(-c3nc(-c4cccs4)no3)ccc1=O)CCO2
94	i	COc1ccc(-c2c(-c3ccc(OCCN4CCC(C(N)=O)CC4)cc3O)n[nH]c2C)cc1
95	i	O=C(Cn1cncc(-c2nc(-c3ccccc3)cs2)c1=O)N1CCc2ccccc2C1
96	i	Cc1ccc(S(=O)(=O)NCCCC(=O)O)c(C)c1N(C)S(=O)(=O)c1ccc(Cl)cc1
97	i	CN1CCC(n2cnc(-c3ccc(F)cc3)c2-c2ccnc(N)n2)CC1
98	i	CN(C)S(=O)(=O)c1ccc(-c2nc(C#N)c(NCCCN3CCOCC3)o2)cc1
99	i	O=C(Cc1ccccc1Cl)Nc1cccc(-c2ccn[nH]2)c1
100	i	Cc1ccc(C(=O)N2CCN(c3oc(-c4ccc(Cl)cc4)nc3C#N)CC2)cc1

3 entries from above, reformatted.
# | mol | GIRK2 act
86 | Nc1ccc2c(c1)CCCN2C(=O)c1cccs1 | i
84 | CCC(=O)NCCN1CCN(C(=O)OC(C)(C)C)CC1 | i
99 | O=C(Cc1ccccc1Cl)Nc1cccc(-c2ccn[nH]2)c1 | i

Next part.
entry	GIRK2 act	SMILES
101	i	O=C(c1cncc(Br)c1)N1CCCSCC1CN1CCCC1 (centres undefined)
102	i	O=C1CCSCC(C(=O)N2CCN(c3ncccn3)CC2)N1 (centres undefined)
103	i	CCOc1ccc(/C=C/C(=O)Nc2ccc(C)cc2Br)cc1OC
104	i	Cc1ccc(-c2ncc(C#N)c(=O)n2CC(=O)NCc2ccccc2Br)cc1
105	i	CCc1ccccc1-n1c(C)c(C)n2c3c(=O)n(CC(=O)OC)c(=O)n(C)c3nc12
106	i	Cc1ccc(C(c2c(C)[nH]c3ccccc23)N2CCC(C)CC2)cc1 (centres undefined)
107	i	CC(C)(C)c1ccc(S(=O)(=O)NCc2ccc(C(=O)NCc3ccco3)cc2)cc1
108	i	Cc1ccc(NCCNS(=O)(=O)c2ccc3cccc4c3c2CC4)nn1
109	i	CCc1ccc(NC(=O)Cn2ncn3c(C)c(C(=O)NCc4ccc(F)cc4)c(C)c3c2=O)cc1
110	i	COc1ccc(Cl)cc1C(=O)NCC(c1cccc2ccccc12)N1CCOCC1 (centres undefined)
111	i	Cc1cc(=O)n2c(-c3cccc(NC(=O)CCCc4ccccc4)c3)csc2n1
112	i	COc1cccc(Nc2n[nH]nc2C(=O)Nc2cccc(C)c2C)c1
113	i	CCCCC/C=C\C/C=C\C/C=C\C/C=C\CCCC(=O)Oc1ccc2ccc(=O)oc2c1
114	i	CC(C)(Oc1ccc(Cl)cc1)C(=O)N1CCC(CSC2=NCCS2)CC1
115	i	Cn1nnn(-c2ccc(NS(=O)(=O)c3ccc(Br)s3)cc2)c1=O
116	i	Cc1nc(-c2cccs2)sc1CNS(=O)(=O)c1ccccc1C(F)(F)F
117	i	COc1cc(C(=O)Nc2ccc(S(=O)(=O)N3CCCCC3)cc2)cc(OC)c1OC
118	i	COc1cccc(Cn2c3c(c(=S)[nH]c2=O)CCC3)c1
119	i	O=C(Nc1nc(CCC(=O)N2CCN(Cc3ccccc3)CC2)cs1)NC1CCCCC1
120	i	CCOC(=O)c1c(S(=O)(=O)NCc2ccc3c(c2)OCO3)n[nH]c1CC
121	i	CCCn1c(=O)c2sc(N3CCCC3)nc2n(CC(=O)Nc2ccc(C(=O)OCC)cc2)c1=O
122	i	CSc1ccc(CNC(=O)CSc2nccnc2N2CCN(c3ccccc3)CC2)cc1
123	i	CC(C)CC1NC(=O)C(C(C)c2ccccc2)NC(=O)C(C(C)C)NC(=O)C(C)NC(=O)CCCNC(=O)C(Cc2c[nH]c3ccccc23)NC(=O)C(C)NC1=O (centres undefined)
124	i	COc1cc(OC)cc(C(=O)Nc2nnc(-c3cc(OC)c(OC)c(OC)c3)o2)c1
125	i	O=C(Cn1nc2c(c1NC(=O)c1cccs1)CSC2)NCCc1ccccc1
126	i	Cc1ccccc1Cn1nnc2c(=O)n(Cc3nc(-c4ccc(Cl)cc4)no3)cnc21
127	i	COc1ccc(C(=O)Nc2ccc(C)c(N3CCCC3=O)c2)c(OC)c1

Given as tab-separated lines: entries from further up
cpd	compound	GIRK2 act
123	CC(C)CC1NC(=O)C(C(C)c2ccccc2)NC(=O)C(C(C)C)NC(=O)C(C)NC(=O)CCCNC(=O)C(Cc2c[nH]c3ccccc23)NC(=O)C(C)NC1=O (centres undefined)	i
124	COc1cc(OC)cc(C(=O)Nc2nnc(-c3cc(OC)c(OC)c(OC)c3)o2)c1	i
